# Screening results as filed in PubChem BioAssay.
# LASV entry inh: Lassa virus entry inhibition. Lassa virus pseudotype entry inhibition, cell reporter; control for the full effect not named in the record. Potency, µM (series often up to 37.9 µM), without a hit: at the highest dose activity change, negative = inhibition, usual class: inhibitors. hit rate 1.2% among 300,000. AID 540256; active means well fitted inhibition curve with a large enough effect; inconclusive means small, poorly fitted or top-dose-only effect, or effect the other way; inactive means flat fitted curve, though single readings scatter; tested in HEK293 cells; note: % is set by controls: 0 for no effect and ±100 for the full control effect; nearly all actives have a fitted effect of over 50% in size; luciferase read-out
# StopGo reporter: FMDV 2A StopGo reporter, luciferase signal. Potency, µM (top dose mostly 57.9 µM), inactives show at the top dose signal change, negative = less light. human cells with a luciferase reporter of 2A StopGo recoding; control for the full effect not named in the record. hit rate 1.2% among 410,000; active = well fitted falling curve with a large enough effect; inconclusive = small, poorly fitted or top-dose-only effect; inactive = no such curve, though single readings can be large or run the other way; tested in HEK293T cells; note: % is set by controls: 0 for no effect and ±100 for the full control effect; nearly all actives have a fitted effect of over 45% in size; luciferase light after 4 h
# Marburg entry inh: inhibitors of Marburg virus binding or cell entry | Marburg virus pseudotyped entry inhibition, cell reporter; control for the full effect not named in the record; about a third of the inactives were read at about 46 µM | Potency, µM (highest dose often 37.8 µM), for the others: top-dose activity change, negative = inhibition, usual class: inhibitors | hit rate 1.8% among 300,000 | AID 540276; active = well fitted inhibition curve with a large enough effect; inconclusive = small, poorly fitted or top-dose-only effect, or effect the other way; inactive = flat fitted curve, though single readings scatter; tested in HEK293 cells; about a fifth of its hits are not listed in these tables; note: % is set by controls: 0 for no effect and ±100 for the full control effect; luciferase read-out
# SARS PLP yeast: blocks SARS-CoV papain-like protease in a yeast assay. S. cerevisiae expressing SARS-CoV PLpro, growth rescue; control for the full effect not named in the record. Potency, µM (top dose mostly 32.9 µM), for the others: at the highest dose activity, positive = growth rescue. hit rate 0.19% among 330,000. AID 485353; note: 0% is about no effect; nearly all actives have a fitted effect of over 55% in size; growth read by luminescence after 48 h
# Cruzain noTriton: blocks cruzain activity in detergent-free assay; P25779; purified cruzain, Z-FR-AMC fluorescence, no detergent; Potency, µM, for the others: max response, negative = inhibition, actives largely listed as inhibitors; hit rate 2.3% among 200,000; active = well fitted curve in the direction sought with a large enough effect; inconclusive = small, poorly fitted or top-dose-only effect, or another doubt; inactive = no such curve, though single readings can be large; an effect the other way counts as inactive or inconclusive;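 note: plate controls were enzyme without inhibitor for no effect and buffer without enzyme for full effect; nearly all actives have a fitted effect of over 40% in size; top concentration of the series not given in the record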
# Target sequence (P25779 123-467 limits assumed): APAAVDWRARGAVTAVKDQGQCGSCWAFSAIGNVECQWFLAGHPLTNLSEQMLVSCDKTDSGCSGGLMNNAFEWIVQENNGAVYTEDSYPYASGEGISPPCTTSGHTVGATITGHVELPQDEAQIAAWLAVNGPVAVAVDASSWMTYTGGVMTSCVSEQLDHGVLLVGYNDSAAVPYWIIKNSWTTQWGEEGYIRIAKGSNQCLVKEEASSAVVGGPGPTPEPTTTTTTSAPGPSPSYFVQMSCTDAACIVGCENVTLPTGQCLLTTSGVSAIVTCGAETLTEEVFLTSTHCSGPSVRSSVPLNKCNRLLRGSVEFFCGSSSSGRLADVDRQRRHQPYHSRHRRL
#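 Purified cruzain at 1.5 nM, pre-incubated 15 min with compound at room temperature in 100 mM sodium acetate pH 5.5, 5 mM DTT, 0.00005% Triton X-100. Reaction started with 2 uM Z-FR-AMC; AMC fluorescence increase over 60 s gives rate.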
# Cruzain inh Det: blocks cruzain activity in presence of Triton detergent; P25779; purified cruzain, Z-FR-AMC fluorescence, 0.01% Triton; Potency, µM, inactives show max response, negative = inhibition, hits mostly inhibitors; hit rate 0.43% among 200,000; AID 1478; active = well fitted curve in the direction sought with a large enough effect; inconclusive = small, poorly fitted or top-dose-only effect, or another doubt; inactive = no such curve, though single readings can be large; an effect the other way counts as inactive or inconclusive;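 note: plate controls were neutral wells for no effect and buffer without enzyme for full effect; nearly all actives have a fitted effect of over 40% in size; top concentration of the series not given in the record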
#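 In this qHTS format, compounds are incubated with 1.5 nM cruzain for 15 min at room temperature before 2 uM Z-FR-AMC is added. Release of AMC is followed at 360/450 nm, and progress is taken as the 60 s fluorescence difference.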
# RE007 growth inh: less growth of the S. pombe RE007 Vpr strain; S. pombe RE007 Vpr strain, BacTiter-Glo ATP luminescence, 24 h; control for the full effect not named in the record; Potency, µM (highest dose often 92.2 µM), without a hit: at the highest dose activity change, negative = less growth; hit rate 0.21% among 360,000; active = well fitted falling curve with a large enough effect; inconclusive = small, poorly fitted or top-dose-only effect; inactive = no such curve, though single readings can be large or run the other way;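 note: % is set by controls: 0 for no effect and ±100 for the full control effect; nearly all actives have a fitted effect of over 50% in size; the assay follows cell death caused by Vpr and the record does not say whether a fall means rescue or toxicity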
#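 Fission yeast strain RE007, carrying one chromosomally integrated HIV-1 vpr copy, was seeded at OD 0.01 in PMG+AL medium with 23 nL pinned compound. After 24 h at 30 °C and 99% humidity, viability was read by BacTiter-Glo luminescence.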
# NS1 function inh: blocks influenza NS1 protein function. S. cerevisiae slowed by influenza A NS1, growth recovery by OD600. Potency, µM (doses to about 46.1 µM), for the others: top-dose activity, positive = more growth. hit rate 0.4% among 270,000; note: actives are rising curves; nearly all actives have a fitted effect of over 50% in size
#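 In this qHTS, NS1 from influenza A is expressed in budding yeast, where it slows growth. Cells are switched from glucose to 2% galactose medium (pH 6.0, -URA), treated with compound, and growth recovery is read at OD600.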
# An asterisk follows results filed as active; ? = inconclusive; . = no result given; & = joins results of further samples; [ ] = another dose, or the depositor's remark. Unless noted, calls come from the whole dose curve; as a rule, active means well fitted rising curve with a large enough effect; inconclusive means small, poorly fitted or top-dose-only effect; inactive means no such curve, though single readings can be large or run the other way. Potency is the fitted concentration of half-maximal effect.
canonical_smiles | SARS PLP yeast | Marburg entry inh | LASV entry inh | NS1 function inh | Cruzain inh Det | Cruzain noTriton | RE007 growth inh | StopGo reporter
O=C(c1ccc(Cl)cc1)n1cnc2ccccc21 | 6% | . | . | -32% | . | . | -1% | -3%
CC1CCCN(CCCNC(=O)CN2C(=O)COc3ccc(S(=O)(=O)N4CCOCC4)cc32)C1 (stereo not given) | -2% | . | . | -2% | . | . | -1% | 22%
O=C(NCCCN1CCCC1=O)[C@H](CSCc1ccccc1)N1Cc2ccccc2C1=O | 0% | . | . | -1% | . | . | 11% | 5%
CS(=O)(=O)c1sc2nc(-c3cccs3)cc(-c3ccccc3)c2c1N | 0% | -20% | -3% | 4% | -18% | 20µM* | 9% | -26%
COc1ccc2oc(=O)c(/C(C)=N/Nc3nc(-c4cc(C)ccc4C)cs3)cc2c1 | 2% | 11% | 1% | 14% | -21% | 13µM* | -12% | -13%
O=C(NCc1ccc(Cl)cc1)C1CCC(CNc2c(N3CCCC3)c(=O)c2=O)CC1 (stereo not given) | 0% | 11%[46.1 µM] | 7% | -6% | . | . | 6% | 1%
COc1ccc(/C(C)=N/NC(=O)CNC(=O)/C=C\c2ccco2)cc1 | -1% | ? | -20% | . | . | . | -12% | -9%
COc1ccc2ncc3c(-c4ccc(C)c(C)c4)nn(CC(=O)NC4CCCC4)c3c2c1 | . | . | ? | . | 1.0% | 2% | . | 22%
CCN1CCN(C(=O)N2CCOCC2)CC1 | 1% | ? | 19% | 0% | . | . | -1% | -7%
O=C(NCc1cccnc1)c1ccc(S(=O)(=O)N2CCOCC2)cc1 | 5% | 2% | 9% | 4% | 3.1% | -5% | -6% | .
COc1ccc(OC)c(CCNC(=O)c2ccc3c(=O)[nH]c4c(C(=O)NC(C)C)sc(=S)n4c3c2)c1 | 4% | . | . | 18% | . | . | -11% | ?
Cc1ccc(S(=O)(=O)N(C)C)cc1[N+](=O)[O-] | 1% | 3%[46.1 µM] | -8% | 3% | . | . | 5% | -14%
CCC(C)NC(=O)CC1Oc2ccc(Cl)cc2NC1=O (stereo not given) | 1% | . | . | -2% | 3.1% | -5% | 17% | 6%
CCC(=O)NC(=S)Nc1cc(C(=O)O)ccc1OC | 1% | 4%[46.1 µM] | 9%[46.1 µM] | . | . | . | -8% | 26%
CC(C)(C)c1csc(N(CCC#N)CCC#N)n1 | -4% | 15% | 5% | -6% | 3.9% | 16% | 2% | 5%
C/C(=C\c1ccccc1)C(=O)Nc1cc(C)on1 | -9% | 10% | ? | -81% | 4.1% | -5% | 2% | 55%[activator]
COc1ccc(-c2cc(C(F)(F)F)n3ncc(C(=O)N4CCc5ccccc5C4)c3n2)cc1 | 0% | -25%[46.1 µM] | 2% | -2% | . | . | 4% | -25%
O=c1ccc2ccc(O[C@@H]3O[C@H](CO)[C@@H](O)[C@H](O)[C@H]3O)c(O)c2o1 | 2% | . | . | . | 0.1% | -13% | 10% | -18%&-8%
CCCCCC(=O)NC(=S)Nc1ccc(Br)cc1C | 4% | 5% | -16% | 5% | -2.5% | ? | 10% | -12%
CCCOc1ccc(-c2nc(N3CCN(CC)CC3)c3ccccc3n2)cc1 | -1% | . | . | -3% | . | . | -6% | 9%
COc1ccc(Cl)cc1NC(=O)c1cc(-c2ccccc2)on1 | -5% | . | . | 3% | . | . | -2% | -4%
NC(=O)C(c1ccc(Sc2ccccc2)nn1)c1ccc(Cl)cc1Cl (stereo not given) | 2% | 8% | -20% | 7% | -6.2% | -7% | 10% | -28%
COC(=O)c1cccc(NC(=O)C2COc3ccccc3O2)c1 (stereo not given) | 0% | 2% | -4% | -21% | -4.7% | -6% | -22% | 44%[activator]
C#CCOCCOCCOCCNc1nc(N2CCOCC2)nc(N2CCN(C(=O)[C@H]([C@@H](C)CC)n3cc(CCCN=C(N)N)nn3)CC2)n1 | -2% | 6% | 0% | -12% | ? | -13% | 0% | -5%
COc1ccc(-n2c(Cc3cccn3C)nnc2SCC(=O)Nc2cccc(NC(C)=O)c2)cc1 | -6% | 0%&10% | -3% | 1% | 2.8% | ? | -3% | 14%
CC1CCCCC1Nc1ncnc2sccc12 (stereo not given) | -19% | ? | -22%[46.1 µM] | -24% | . | . | 6% | -9%
CCc1ccc2oc(-c3ccc(NC(=O)c4cccc(Cl)c4Cl)cc3)nc2c1 | . | . | -27%[46.1 µM] | . | -1.7% | -2% | . | 13µM*
O=C(CN1CCCCC1)Nc1ccc(C(F)(F)F)cc1Cl | 1% | ? | 9% | -1% | . | . | -6% | 7%
CCN1C(=O)/C(=C\c2ccco2)C(C(=O)OC)=C1C | 3% | -22% | -2% | -4% | -3.9% | -7% | -20% | -11%
COc1nc(=O)n(C2OC(CO)C(O)C2O)cc1C (stereo not given) | . | ? | 3%[46.1 µM] | . | . | . | 5% | -10%
Cc1ccc(S(=O)(=O)Cn2nnnc2C(C(C)C)N2CCSCC2)cc1 (stereo not given) | -8% | -28% | -21% | -11% | -1.3% | 1% | 13% | .
CC(C)(O)c1[nH]c2ccc(C(F)(F)F)cc2c1C(C)(C)O | -10% | . | . | -24% | . | . | -17% | 3%
COc1ccccc1C(=O)NC(CCSC)C(=O)NNC(=O)c1csc(N2CCOCC2)n1 (stereo not given) | ? | -7% | 1% | 5% | . | . | -5% | -16%
CCN(CC)CC(C)(C)C(=O)/C=C/c1ccc(/C=C/C(=O)C(C)(C)CN(CC)CC)cc1 | . | 1.4µM* | 3.5µM* | . | . | . | 0% | 3.5µM*
CCCN(CCC)CC(=O)NCC1(c2ccccc2)CCOCC1 | -8% | -27% | -2% | -4% | 0.0% | -12% | 12% | 8%
Cc1cc(C)c(C)c(S(=O)(=O)N2CCCN(C)CC2)c1C | 2% | -8%[46.1 µM] | -31% | 5% | . | . | 1% | -21%
Cc1ccc(NS(=O)(=O)c2ccc3c(c2)N(C)C(=O)CC(=O)N3C)cc1Cl | . | 1%[46.1 µM] | -14%[46.1 µM] | . | -7.6% | 3% | . | 58%[activator]
Cc1ccc(C(=O)N/C(=C/c2ccco2)C(=O)N2CCOCC2)cc1 | 1% | -6%[46.1 µM] | . | -9% | . | . | -1% | 12%
O=C1CCC(=O)N1OCCOc1ccc(Cl)c2ccccc12 | 16% | 12%[46.1 µM] | 7%[46.1 µM] | -5% | . | . | -4% | 19%
CC(Cc1ccccc1)N/C=C1\CC(=O)NC1=O (stereo not given) | 8% | -9% | 5% | 13% | 1.5% | 8% | 7% | 5%
N#C/C(=C\c1cn(CCOc2ccccc2F)c2ccccc12)C(=O)NCc1cccs1 | -33% | -10% | 0% | 6% | -0.8% | ? | -1% | -5%
Cc1cc(Br)ccc1OCC(=O)N(Cc1nc(-c2ccccc2)no1)C(C)C | -15% | ? | -13% | -96% | -4.2% | -5% | 18% | ?
Cc1ccc(Cl)cc1NC(=O)Cn1nc2c(cc1=O)CC(C)CC2 (stereo not given) | . | . | -5%[46.1 µM] | . | 0.0% | -5% | . | -15%
Cc1ccc(C(=O)N/N=C/c2cccc(OC(=O)/C=C/c3ccco3)c2)cn1 | -2% | 11%[46.1 µM] | -10% | -6% | . | . | -6% | 5%
COc1ccc(CNC(=O)COC(=O)CCCOc2ccc(Cl)cc2Cl)cc1 | 14% | -9% | 0% | -7% | -7.0% | ? | 16% | -19%
Cc1cc(C)n(-c2nc(NCC(C)O)c3c4c(sc3n2)CCCC4)n1 (stereo not given) | -3% | ? | ? | -117% | -7.3% | ? | 10% | -22%
COc1ccc(Br)cc1CN(C)CC(O)COc1ccc(Br)cc1 (stereo not given) | -3% | ? | ? | -2% | . | . | -15% | -8%
CSc1ncc(CN2CCc3c([nH]c4ccccc34)C2c2cccc(C)n2)cn1 (stereo not given) | -5% | . | . | 6% | . | . | -5% | -16%
